# Source: PubChem (several laboratories)
# BJeLR viability = BJeLR cell viability loss. AID 1554. BJeLR (HRASV12) viability, CellTiter-Glo ATP luminescence, 48 h; reference of the scale not given here. inhibition, % (no concentration beside the values). 0.17% of 300,000 active;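 active = replicate mean above 50%; inconclusive = above 50% but judged a plate artefact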;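 also: 50 nL library stock added to about 25 µL; numbers are from one replicate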
# ugtP null kill = kills S. aureus RN4220 lacking UgtP; S. aureus RN4220 ugtP deletion, OD600 growth, 16 h; some inactives read as strong as hits; growth inhibition, % (concentration not given with the values); 0.54% of 330,000 active; AID 1259309;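 active = z-score under -3 and OD600 up to 0.15 on both plates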;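 also: plate controls were untreated wells for no effect and antibiotic for full effect; wells of about 80 µL received 100 nL stock; the first replicate is given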
# Sa RN4220 lethal = S. aureus RN4220 growth inhibition; OD600, 16 h; inhibition, % (concentration not given with the values); 0.33% of 330,000 active;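 active = z-score of -3 or lower and OD600 up to 0.18 on both plates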;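 also: plate controls were untreated cells for no effect and reference antibiotic for full effect; stock transfer was 100 nL into about 80 µL; one replicate is shown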
# PrP UTR inh = inhibition of PrP 5' UTR reporter expression. cell-based PrP 5' UTR mRNA reporter, plate reader. inhibition, % (concentration not given with the values). 0.35% of 340,000 active. AID 488862;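 active = every replicate at 50% or more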;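 also: 0 = median of the neutral control wells; tested in H4 reporter cells; numbers are from one replicate; inactives centre near -14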
# Bead autofluor = counter-screen for toxin protease inhibitors: compound fluorescence | 3.1% of 360,000 active | AID 624483 | compound autofluorescence counterscreen, microsphere flow cytometry; hits give high values | fluorescence intensity (concentration not given with the values);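 active = at least 3 SD above the mean of all compounds, about 16000 in these data; inconclusive = too few beads counted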;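 also: 100 nL of 1 mM stock went into each well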
# Mtb hypoxia rep = Mtb hypoxia fluorescent reporter inhibition. AID 1159583. 0.1% of 300,000 active. fluorescence inhibition, % (test concentration not listed). M. tuberculosis hypoxia-regulated fluorescent reporter, fluorescence;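 active = 35 to 45% if threefold the growth effect, above 45% if 1.5-fold the growth effect; inactive = the rest, general growth blockers included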;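 also: wells of about 50 µL received 100 nL stock; 0% = vehicle wells and 100% = reference inhibitor wells; whole bacteria with a GFP reporter of the hypoxia response; strong numbers were not always called active; many hits fall short of the cut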
# Mtb hypoxia rep growth = further read-out of Mtb hypoxia rep, marked with its call; growth inhibition, %; measured here: M. tuberculosis growth (absorbance);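 0% = vehicle and 100% = reference antibiotic; read after six days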
# Active calls of the source: *; ? = inconclusive; / = not tested or not shown.
item	molecule	BJeLR viability	ugtP null kill	Sa RN4220 lethal	PrP UTR inh	Bead autofluor	Mtb hypoxia rep	Mtb hypoxia rep growth
1	COc1c(C)cc(C(=O)C2CCCN(Cc3cccc(C)n3)C2)cc1C (configuration not stated)	5	6	8.2	-3	2752	1	-1
2	O=C(Cn1nnc(-c2ccccc2)n1)NNC(=O)c1cccc([N+](=O)[O-])c1	0	12	-0.1	-24	3681	9	10
3	Cc1nnc(NC(=O)Cn2c(=O)sc3ccccc32)s1	5	9	3.7	-17	5526	4	5
4	O=C(N/N=C/c1ccccn1)c1[nH]c2ccc([N+](=O)[O-])cc2c1-c1ccccc1	-6	/	/	-5	4633	/	/
5	Cn1c(SCC(N)=O)nnc1C1CCN(S(=O)(=O)c2ccccc2C(F)(F)F)CC1	3	3	7.5	1	3125	7	9
6	COc1cc(/C=C/c2cccc[n+]2C)ccc1OCC(=O)Nc1ccccc1	3	3	-0.1	-8	5995	10	11
7	O=C(NCCCn1ccnc1)c1ccc(N2CCCCC2)c([N+](=O)[O-])c1	-7	1	3.5	-53	3682	10	5
8	Nn1c(SCc2ccccc2)nc2ccccc21	-1	10	2.3	-79	3871	-6	6
9	Cc1cc(C(=O)O)ccc1-n1c(C)cc(C=C2C(=O)c3ccccc3C2=O)c1C	1	11	36	-7	4508	14	8
10	CCOc1cc(N2CCOCC2)c(OCC)cc1NC(=O)COC(=O)c1cccc2ccccc12	-3	-2	7.1	-29	2459	-2	-6
11	Cc1ccc(C(=O)NCCCc2ccccc2)c(Cl)c1	-3	7	7.1	-49	4237	15	3
12	C/C(=N\NC(=O)c1ccc2ccccc2c1)c1cccnc1	8	/	/	-13	4343	/	/
13	Cc1[nH]c2ccccc2c1C(=O)C(C)Sc1nnc(C2CC2)o1 (configuration not stated)	/	-7	20	-5	5470	4	9
14	CCS(=O)(=O)N1CCC(N2CCC(C)CC2)CC1	5	-3	3.5	-5	3366	18	8
15	Nc1ccc2c(c1)C(=O)c1cc([N+](=O)[O-])ccc1-2	/	4	1.1	-22	2931	12	6
16	Cc1ccc(C(=O)N2CC(C)CC(C)C2)cc1NC1=NC2CS(=O)(=O)CC2S1 (configuration not stated)	-3	-3	-11	-24	6094	7	-5
17	Cc1cccc(OCCNc2cc(N3CCN(C)CC3)ccc2[N+](=O)[O-])c1	2	2	-1.4	-21	10580	10	2
18	COc1ccc(-c2nc(CS(=O)(=O)CC(=O)NCCc3ccccc3)c(C)o2)cc1	-2	6	3.0	-10	5952	7	1
19	Cc1ccc2c(Cl)cc(Cl)c(OCC(=O)N(C(C)C)C(C)C)c2n1	-13	0	3.8	-7	4321	19	13
20	O=C(CCC(=O)N1CCOc2ccccc21)Nc1ccc(F)cc1F	-12	5	6.9	0	5540	6	3
21	CCOC(=O)N1CCC(NC(=O)CCc2nc(-c3ccccc3F)no2)CC1	/	-1	-0.7	-14	2892	/	/
22	CCOC(=O)c1sc(NC(=O)CSc2nnc(C)s2)c(C(=O)OCC)c1C	/	-1	2.4	-18	22787*	2	6
23	O=C1/C(=C\c2ccccc2Cl)SC(=S)N1CCC(=O)N1CCCc2ccccc21	-8	-7	2.7	-7	2135	11	20
24	CN(CC(=O)Nc1cccc(F)c1)C(=O)CCc1nc2cc(S(=O)(=O)N3CCOCC3)ccc2n1C	5	6	3.5	-9	4226	-5	-2
25	Cc1cc([N+](=O)[O-])ccc1NC(=O)CSc1nncn1-c1cccnc1	4	10	2.9	-12	3535	5	10
26	CC(C)=CCC/C(C)=C/CNC(=O)C[C@H]1C[C@H](C(=O)N(C(C)C)C(C)C)[C@@]2(C)c3[nH]c4ccc(Cl)cc4c3CCN2C1=O	/	-22	-10.0	-18	4183	-9	7
27	CN(C(=O)CSc1nnc(Nc2ccccc2F)s1)C1CCS(=O)(=O)C1 (configuration not stated)	/	0	3.1	-36	?	-2	1
28	O=[N+]([O-])c1cc(Cl)ccc1Nc1ccccc1	-3	15	2.1	-12	2940	8	0
29	Cc1ccccc1C(=O)NNC(=O)C1CCCN(c2ncccn2)C1 (configuration not stated)	8	-2	1.2	-22	8844	-7	-3
30	CC(C)CCNC(=O)C(c1ccco1)N(Cc1ccccc1)C(=O)c1snc(C(N)=O)c1N (configuration not stated)	-15	5	12	0	22391*	8	6
31	Cc1c(C=O)c2ccccc2n1CC(=O)N1CCc2ccccc2C1	1	5	0.1	-6	3554	2	6
32	Cc1ccc(NC(=O)CN(C)C(C)C(=O)Nc2ccc(S(=O)(=O)N3CCCC3)cc2)cc1 (configuration not stated)	-6	4	4.3	-13	5568	5	2
33	CCC(Cc1ccccc1)=NNC(=O)CCn1nnc2ccccc21	/	2	-0.5	/	/	-2	3
34	Oc1cccc(C=NNP(=S)(c2ccccc2)c2ccccc2)c1	/	-4	15	/	/	2	-1
35	COC(=O)c1cccc(Cn2c(Cl)c(C=NNc3ccccc3C)sc2=O)c1	/	-15	-6.3	/	/	-1	2
36	CN(C)CC1CCCCC1=O (configuration not stated)	2	3	6.0	-25	5096	14	-2
37	COC(=O)C(Cc1ccc(O)cc1)NC(=O)c1ccccc1OC (configuration not stated)	0	-3	-2.2	-10	3946	9	15
38	NC(=O)c1ccccc1NC(=O)/C=C/c1c(Cl)cccc1Cl	8	-8	4.0	-30	?	0	9
39	CCCN1CCN(C(=O)Cn2cccc2C(=O)c2ccccc2)CC1	-4	1	6.5	-13	?	5	2
40	COc1ccc(CCNC(=O)c2c(-c3ccccc3Cl)noc2C)cc1	0	5	2.9	-19	10605	17	7

# An excerpt from above, limited to BJeLR viability and ugtP null kill.
nr	SMILES	BJeLR viability	ugtP null kill
22	CCOC(=O)c1sc(NC(=O)CSc2nnc(C)s2)c(C(=O)OCC)c1C	/	-1
34	Oc1cccc(C=NNP(=S)(c2ccccc2)c2ccccc2)c1	/	-4

# Carrying on:
item	molecule	BJeLR viability	ugtP null kill	Sa RN4220 lethal	PrP UTR inh	Bead autofluor	Mtb hypoxia rep	Mtb hypoxia rep growth
41	c1ccc(CSc2nnc3ccc(-c4ccco4)nn23)nc1	15	7	1.0	-18	4433	-1	13
42	CC(=NNC(=O)c1c(-c2ccccc2Cl)noc1C)c1cccc(NC(=O)C(C)C)c1	/	-2	-0.3	/	/	5	9
43	Cc1cc(C)c2nc(N3CCC(C(=O)NCCCN4CCCCC4)CC3)sc2c1	-9	-1	4.4	-4	10347	13	8
44	CC1=C(C)CC2(SC1)C(=O)N(c1ccccc1)N=C2N (configuration not stated)	-5	-63	10	-27	4084	1	9
45	C/C=C/c1ccc(OCCCCn2cncn2)c(OC)c1	/	0	4.9	-7	3567	/	/
46	CCC(Sc1nnnn1C)C(=O)Nc1ccc(C(C)=O)cc1 (configuration not stated)	-5	1	-11	-40	3389	9	2
47	Cc1cccc(C)c1NC(=O)C(c1ccc([N+](=O)[O-])cc1)N(C)C(=O)c1ccccn1 (configuration not stated)	9	1	1.4	-30	7536	-3	-1
48	Cc1ccc(-c2csc(N3CCC[C@@H]3C(=O)NCCn3c(-c4ccncc4)nc4ccccc43)n2)cc1	0	/	/	-23	3012	/	/
49	COc1ccc(OCC(=O)Nc2cccc3ncccc23)cc1	5	0	0.9	-34	2447	/	/
50	O=[N+]1C2=C(CCCC2)N([O-])C12CCCC2	-5	3	4.9	-14	10520	2	1
51	COC(=O)C1=C(c2ccc(S(C)(=O)=O)cc2)CC2CCC1N2C(=O)NCCNC(C)=O (configuration not stated)	/	-8	4.2	/	/	-7	-9
52	COc1ccc(OC)c(C2=NOC(C(=O)N3CCN(c4ccccc4)CC3)C2)c1 (configuration not stated)	-1	6	-1.4	-8	5503	6	7
53	CCOc1ccc(CN(C)CCc2ccccn2)cc1	-15	-1	-0.2	-19	2296	7	-1
54	Cn1cc(CN2CCC(n3nccc3NC(=O)CCCc3ccccc3)CC2)cn1	3	-2	5.4	-17	5418	12	2
55	CCC(C)c1ccccc1N1CC(C(=O)N2CCN(S(=O)(=O)c3ccc(F)cc3)CC2)CC1=O (configuration not stated)	2	14	5.7	-3	?	-1	-9
56	O=C(NCc1ccccc1)c1ccc(Oc2ccc(C(=O)NCc3ccccc3)cc2)cc1	1	-5	1.1	-13	2772	-12	-1
57	O=C(COC(=O)/C=C/c1ccccc1Cl)NCCNC(=O)COC(=O)/C=C/c1ccccc1Cl	7	-8	7.1	4	6138	4	9
58	CCCCCCCCCCCCN1C(CC(=O)OC)c2cc(F)cc(F)c2S1(=O)=O (configuration not stated)	/	3	-0.1	/	/	16	7
59	O=S(=O)(/C=C/c1ccccc1)Nc1ccc2c(c1)OCO2	2	-3	0.2	-15	2548	/	/
60	CCCn1c(SCC(=O)NC(=O)Nc2ccc(C)cc2C)n[nH]c1=O	7	0	3.5	-33	9704	13	3
61	COc1cc(/C=N/N2C(=O)c3ccccc3C2=O)ccc1O	-18	/	/	-40	2451	/	/
62	CC#CCN1c2ccccc2[C@]23CC(C(=O)OC)N(C(=O)NC(C)(C)C)C2=NC(C(=O)OC)=C(C(=O)OC)C13 (some centres not stated)	/	-5	-9.1	/	/	5	5
63	CSc1cccc(NC(=O)C(C)NS(=O)(=O)c2ccc(F)cc2)c1 (configuration not stated)	2	0	3.8	-44	11133	11	9
64	CCOc1ccc(C=NOCC(=O)Nc2cc(S(=O)(=O)N3CCOCC3)ccc2OC)cc1	/	8	1.9	/	/	13	-2
65	COCCNC(=O)Cn1cc2c(n1)CCCCC2	-1	12	-0.2	-8	6036	/	/
66	CC1=C/C(=C/N(C)c2ccccc2)C(=O)S1	9	-1	4.9	2	3893	-2	13
67	COc1ccc(S(=O)(=O)Cc2ccc(C(=O)N3CCN(c4cccc(C)c4)C(C)C3)o2)cc1 (configuration not stated)	20	5	-0.6	-28	5746	/	/
68	O=C(Nc1cccc(S(=O)(=O)NC2=NCCC2)c1)C1CCC1	-1	0	0.7	-13	4215	-8	1
69	CCCc1ccc(OCc2ccc(C(=O)NN)o2)c(OC)c1	0	2	5.9	-13	3009	-5	1
70	CCn1cc(C2=NC(C)CO2)c2ccccc21 (configuration not stated)	3	6	3.4	-13	8275	-2	0
71	CCN1c2ccccc2-c2nc3ccccc3n2C1c1ccncc1 (configuration not stated)	1	3	-0.4	-6	3219	0	-1
72	O=C(c1cn(-c2ccccc2)nc1-c1ccncc1)n1nnc2ccccc21	-21	-6	-1.1	-23	4640	/	/
73	COc1ccc(Br)cc1/C=N/NC(=O)CN1CCCCC1	-9	/	/	-7	3853	/	/
74	Cc1cccc(OCC(=O)Nc2ccc(C(=O)O)cc2NC(=O)COc2cccc(C)c2)c1	-10	3	4.7	-7	4435	3	-1
75	Nc1ncnc2c1ncn2C1CCCC1	/	5	1.3	-23	6321	-1	3
76	NC(CSC12CC3CC(CC(C3)C1)C2)C(=O)O (configuration not stated)	-9	2	5.6	-13	10392	2	9
77	CCOC(=O)C1CCCN(C(=O)c2cn(CC(C)C)c(=O)c3cc(OC)c(OC)cc23)C1 (configuration not stated)	3	4	1.6	-25	9866	-82	-18
78	CC(C)[C@H]1CC[C@@H](C)C(C(=O)c2ccccc2)C1=O (some centres not stated)	-9	8	3.8	-7	2178	12	1
79	CC(C)(C)CN1CCN(Cc2nc(-c3ccc(F)cc3)cs2)CC1CCO (configuration not stated)	6	13	0.1	-18	4144	7	0
80	CC(C)(C)NC(=O)CN(C(=O)CS(=O)CC(=O)Nc1ccc(F)cc1)c1cccc(F)c1 (configuration not stated)	2	2	-0.3	-6	4227	3	6
81	NCC(O)CN(c1ccccc1)c1ccccc1 (configuration not stated)	-6	5	3.8	-27	3991	4	3
82	Cc1cccc(NC(=S)/N=C(\N)Nc2nc(C)c3ccc(C)cc3n2)c1	11	/	/	-7	?	/	/
83	Cc1ccc(C2=C/C(=C\c3cccnc3)C(=O)O2)cc1	1	13	0.2	-23	2913	6	4
84	CCCCNC(=S)N(C)/N=C/c1c(F)cccc1F	0	/	/	-10	2544	/	/

# A different layout for 2 compounds above:
23: O=C1/C(=C\c2ccccc2Cl)SC(=S)N1CCC(=O)N1CCCc2ccccc21
  BJeLR viability: -8	ugtP null kill: -7	Sa RN4220 lethal: 2.7	PrP UTR inh: -7	Bead autofluor: 2135	Mtb hypoxia rep: 11	Mtb hypoxia rep growth: 20

24: CN(CC(=O)Nc1cccc(F)c1)C(=O)CCc1nc2cc(S(=O)(=O)N3CCOCC3)ccc2n1C
  BJeLR viability: 5	ugtP null kill: 6	Sa RN4220 lethal: 3.5	PrP UTR inh: -9	Bead autofluor: 4226	Mtb hypoxia rep: -5	Mtb hypoxia rep growth: -2
